Assay outcomes (PubChem)
RE007 growth inh: qHTS Assay for Inhibitors of the HIV-1 protein Vpr | S. pombe RE007 Vpr strain, BacTiter-Glo ATP luminescence, 24 h; control for the full effect not named in the record | 360,000 compounds, 0.21% hits | AID 651644, 2012 | Potency, µM (titrated, usually from 92.2 µM), for inactives: at the highest dose activity change, negative = less growth; active = well fitted falling curve with a large enough effect; inconclusive = small, poorly fitted or top-dose-only effect; inactive = no such curve, though single readings can be large or run the other way;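 also: % is scaled to controls: 0 for no effect and ±100 for the full control effect; nearly all actives have a fitted effect of over 50% in size; the assay follows cell death caused by Vpr and the record does not say whether a fall means rescue or toxicity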
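Fission yeast RE007 carrying one integrated HIV-1 vpr copy, seeded at OD 0.01 in PMG+AL medium with 23 nL pinned compound. Grown 24 h at 30 degrees; viability read by BacTiter-Glo luminescence after 5 min.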
SARS PLpro yeast: qHTS of Yeast-based Assay for SARS-CoV PLP | S. cerevisiae expressing SARS-CoV PLpro, growth rescue; control for the full effect not named in the record | Potency, µM (titrated, usually from 32.9 µM), for inactives: at the highest dose activity, positive = growth rescue | 330,000 compounds, 0.19% hits; active means well fitted rising curve with a large enough effect; inconclusive means small, poorly fitted or top-dose-only effect; inactive means no such curve, though single readings can be large or run the other way; also: 0% is about no effect; nearly all actives have a fitted effect of over 55% in size; growth read by luminescence after 48 h
2A StopGo: High Throughput Screening for Foot and Mouth Disease Virus Antivirals; human cells with a luciferase reporter of 2A StopGo recoding; control for the full effect not named in the record; Potency, µM (series often up to 57.9 µM), inactives show at the top dose signal change, negative = less light; 410,000 compounds, 1.2% hits; AID 1159524, 2015; active = well fitted falling curve with a large enough effect; inconclusive = small, poorly fitted or top-dose-only effect; inactive = no such curve, though single readings can be large or run the other way; tested in HEK293T cells; also: % is scaled to controls: 0 for no effect and ±100 for the full control effect; nearly all actives have a fitted effect of over 45% in size; luciferase light after 4 h
* hit, by the source's call; u = inconclusive; [ ] = remark or other dose. Potency is read from the fitted curve at half-maximal effect. These rows are one share of the data. The share of hits here may be higher or lower than overall.

structure | RE007 growth inh | SARS PLpro yeast | 2A StopGo
Cc1ccc(S(=O)(=O)N2CC(=O)N3CCN(CCN)C3C2)cc1 (stereo not given) | -2% | 2% | -8%
COc1ccccc1OCC(=O)Nc1ncc(C)s1 | 1% | 7% | 19%
O=C(Nc1cc(S(=O)(=O)N2CCOCC2)ccc1N1CCOCC1)c1ccc([N+](=O)[O-])s1 | -19% | 2% | -20%
Cc1ccc(C(=O)OCC(=O)Nc2ccc(F)c(Cl)c2)o1 | 5% | -14% | -5%
COC(=O)c1ccc2c(C)c(C3(O)CCCCC3)[nH]c2c1 | -12% | -2% | 6%
CCC1Nc2ncnc(N3CCN(c4ccccc4)CC3)c2N(Cc2ccc(C)cc2)C1=O (stereo not given) | -5% | 1% | -14%
CCOc1cc(/C=C/C(=O)OCC(=O)NCCN2C(=O)CSC2=O)ccc1OCC(C)C | -5% | -4% | 2%
Cc1ccc(N2CC(C(=O)OCC(=O)Nc3ccccc3C)CC2=O)cc1 (stereo not given) | 9% | u | 2%
O=C(NCc1cc(C(F)(F)F)cc(C(F)(F)F)c1)C1CC(c2ccccc2C(F)(F)F)=NO1 (stereo not given) | 17% | 2% | -4%
COc1ccc(OC)c(S(=O)(=O)NC(N)=NCCc2ccccc2)c1 | 15% | -1% | 13%
CC1CCN(C(=O)COC(=O)CCc2c[nH]c3ccccc23)CC1 | -10% | -1% | -6%
CCOC(=O)c1c[nH]c(=S)n(-c2ccccc2)c1=O | 3% | -3% | 11%
O=C(NC1CC1)C1CCCN1C(=O)NC1CCCCC1 (stereo not given) | 9% | 4% | -17%
Cc1ccc(-c2nc(NCC3CCCO3)sc2C)cc1 (stereo not given) | -2% | 3% | 62%[activator]
NC(=O)CCCn1c(C(=O)c2cc(Cl)c(N)c(Cl)c2)c2ccc(C(F)(F)F)cc2[n+]1[O-] | -1% | 6% | -13%
COc1ccc(N2CCN(C(CNS(C)(=O)=O)c3ccco3)CC2)cc1 (stereo not given) | 3% | 2% | -18%
COc1ccc(NC(=O)COC(=O)c2ccc(N3CCCC3=O)cc2)cc1 | 1% | -4% | -21%
C[C@H](CO)N1C[C@H](C)[C@@H](CN(C)Cc2ccncc2)Oc2c(NS(=O)(=O)c3ccccc3)cccc2C1=O | -5% | 7% | 46%[activator]
O=C(Nc1cc(-c2ccccc2)nn1C1CCCCC1)c1ccc(Cl)cc1 | 5% | u | u
Cc1ccc(CNC(=O)c2ccc(N3CCC4(CC3)CC(c3cccc(Br)c3)=NO4)c(NC(=O)c3cccc(C)c3)c2)cc1 | -7% | -1% | -13%
CN(CC(=O)Nc1ccc(Cl)c(S(=O)(=O)N2CCOCC2)c1)C(=O)c1ccc(C#N)cc1 | -11% | -1% | u
Cc1sc(NC(=O)c2ccco2)c(C(c2cccnc2)N2CCN(CCO)CC2)c1C (stereo not given) | -17% | 2% | 5%
C[C@H](CO)N1C[C@H](C)[C@@H](CN(C)Cc2ccc3c(c2)OCO3)Oc2c(NS(C)(=O)=O)cccc2C1=O | 1% | -1% | 45%[activator]
COc1ccc(NC(=O)CSc2nc3ccccc3c(=O)[nH]2)cc1S(N)(=O)=O | 20% | -3% | -15%
CCCCCCCNC(=O)C1(CC2CC(c3cccc(Br)c3)=NO2)CCN(C(=O)C2(C)CC2)CC1 (stereo not given) | 1% | 5% | -21%
CCOc1ccc(CC(=O)NC2CC(C)(C)N(C)C(C)(C)C2)cc1OCC | -9% | 3% | -1%
CCOC(=O)c1c(NC(=O)COC(=O)Cc2n[nH]c(=O)c3ccccc23)sc(C(=O)NC)c1C | 27% | -1% | -25%
CN(Cc1nc2ccccc2c(=O)[nH]1)C(=O)c1cccc(S(=O)(=O)N2CCCCCC2)c1 | 10% | 2% | u
NS(=O)(=O)c1ccc(NC(=O)COC(=O)CN2C(=O)C3CC=CCC3C2=O)cc1 (stereo not given) | -3% | 1% | -13%
CCc1ccccc1NC(=O)CN1CCN(C(=O)C2CCN(C(=O)/C=C/c3ccccc3)CC2)CC1 | 4% | 2% | 0%
COC(=O)[C@]1(Cc2ccccc2)N[C@H](CN(C)C(=O)c2ccc(C)cc2)[C@@H]2C(=O)N(Cc3ccccc3)C(=O)[C@@H]21 | 16% | -2% | -9%
CCC(C)(C)C1CCc2[nH]nc(C(=O)NCc3ccc(Cl)cc3)c2C1 (stereo not given) | -12% | -1% | -25%
CC12COC3(C(=O)Nc4ccccc4F)CC1CCC32C (stereo not given) | 6% | 0% | -7%
O=C(COC(=O)/C=C/c1ccc([N+](=O)[O-])cc1)NC1CCCCC1 | 6% | -1% | -12%
COc1ccc([C@@H]2[C@@H]3C(=O)N(C(C)(C)C)C(=O)[C@@H]3[C@]3(Cc4ccccc4)C(=O)N(c4ccc(OC)cc4)C(=O)N23)cc1 | -4% | 7% | -10%
O=C(C[C@@H]1C/C=C\C[C@@H](NC(=O)OCC2c3ccccc3-c3ccccc32)C(=O)OC[C@@H](Cc2ccccc2)NC1=O)NCCO | -7% | -3% | -11%
Cc1ccc(NC(=O)c2nc[nH]c2C(=O)N(C)Cc2ccccc2)cc1 | -7% | 3% | -12%
CCCN1CCC(NC(=S)Nc2cccc(Cl)c2Cl)CC1 | 2% | -1% | 1%
CCn1c(=O)cc(SCC(=O)Nc2cccc(C)n2)c2ccccc21 | 6% | 0% | u
CC1CN(C(=O)COC(=O)Cc2ccc(Cl)cc2)CC(C)O1 (stereo not given) | -5% | 3% | -8%
CCc1noc(C)c1C(=O)NNC(=O)c1ccccc1 | 21% | 1% | -28%
Cc1ccc(NC(=O)CN(C)C(=O)c2cccc(S(=O)(=O)NCc3ccco3)c2)cc1 | 8% | 0% | 28%
CCCOc1ccccc1OCC(=O)N1CCN(S(=O)(=O)c2ccc(Cl)cc2)CC1 | 1% | -5% | -5%
CC(C)C(C)NC(=O)COn1nnc2ccc(S(=O)(=O)N3CCOCC3)cc21 (stereo not given) | 5% | -2% | 3%
O=C(Cc1cccs1)N[C@@H]1c2ccccc2CC[C@@H]1OCc1ccccc1 | 4% | -1% | 13%
CSc1ccc(CCCCCCOC(=O)C(C)(C)C)cc1 | -5% | -1% | 3%
COc1ccc2c(c1)OC[C@H]1[C@H]2N2C(=O)c3cc(Br)ccc3NC(=O)[C@@]2(C)[C@H]1c1ccccc1 | -2% | 1% | -22%
CC1CN(S(=O)(=O)c2cccc(C(=O)NCc3ccccn3)c2)CC(C)O1 (stereo not given) | 2% | -3% | -5%
O=S(=O)(NCc1ccc(F)cc1)c1ccc(Br)cc1Br | 3% | 0% | 38%[activator]
O=c1c2ccccc2nc2c3ccccc3cnn12 | -9% | -5% | 75%[activator]
CC(C)(C)OC(=O)N1CCN(C(=O)c2nc[nH]c2C(=O)N2CCN(c3ccccc3)CC2)CC1 | 6% | 8% | -9%
COc1ccccc1NS(=O)(=O)c1cc(N=N/C(C(=O)Nc2ccc(Cl)cc2)=C(/C)O)ccc1C | -14% | -2% | 33%[activator]
Cc1ccc(S(=O)(=O)Nc2ccc3c(c2)C(=O)N([C@H](C)CO)C[C@H](C)[C@@H](CN(C)Cc2ccccc2)O3)cc1 | 4% | 1% | -4%
CC(C)N(C(=O)[C@H]1C[C@H](CC(=O)NCCC2=CCCCC2)C(=O)N2CCc3c([nH]c4cc(CCC(=O)N(C)C)ccc34)[C@]12C)C(C)C | 6% | 7% | -16%
CC(=O)N1c2ccccc2C2CCCC[C@H]21 (stereo not given in full) | 9% | -3% | 4%
Cc1ccccc1OCC(=O)OCC(=O)NCc1ccccc1 | 3% | -5% | 2%
COc1cc(/C=C/C(=O)OCC(=O)Nc2c(C)n(C)n(-c3ccccc3)c2=O)cc(OC)c1OC | -15% | 9% | -14%
COc1ccc(CN2C(=O)C(CC(C)C)Nc3ncnc(N4CCOCC4)c32)cc1 (stereo not given) | -1% | 0% | -19%
COC(=O)[C@]1(C)N[C@H](c2ccc(-c3ccc(Cl)c(Cl)c3)cc2)[C@@H]2C(=O)N(C)C(=O)[C@@H]21 | -7% | 5% | u
NCc1ccccc1CS(=O)(=O)N1CCOCC1 | -14% | 13% | -6%

(more compounds)
structure | RE007 growth inh | SARS PLpro yeast | 2A StopGo
O=C(CNC(=O)C12CC3CC(CC(C3)C1)C2)OCc1ccc(F)cc1Cl | 15% | -8% | 3%
Cc1noc(C)c1S(=O)(=O)N(C)C[C@H]1Oc2c(NC(=O)Nc3ccc4c(c3)OCO4)cccc2C(=O)N([C@H](C)CO)C[C@@H]1C | 6% | 18% | 14%
Cc1nc2ccc(NC(=O)c3ccc(C)c(S(=O)(=O)N4CCOCC4)c3)cc2s1 | 16% | 7% | u
CCOC(=O)[C@@H]1[C@H]2COc3ccccc3[C@@H]2N2C(=O)N(c3ccc(C)cc3)C(=O)[C@@]12C | 2% | 9% | 36%[activator]
COC(=O)C1=C(C)N(Cc2ccccc2)C(=NCCc2c[nH]c3ccccc23)N[C@H]1c1cccc(F)c1 | -2% | -7% | u
COc1cc(OC)cc(-c2cc3ccccc3c(=O)o2)c1 | -14% | 2% | 47%[activator]
O=C(CCNC(=O)c1ccc([N+](=O)[O-])cc1)Nc1cccc(S(=O)(=O)N2CCCCCC2)c1 | 4% | 11% | u
Cc1ccc(OCC(=O)c2c[nH]c3ccccc23)c([N+](=O)[O-])n1 | -5% | 1% | 77%[activator]
COC(=O)C1=CO[C@@H](O[C@@H]2O[C@H](CO)[C@@H](O)[C@H](O)[C@H]2O)C2C(CO)=CCC12 (stereo not given in full) | -11% | 4% | -17%
COC(=O)c1cc(C(=O)OCC(=O)c2ccc[nH]2)cc([N+](=O)[O-])c1 | -20% | -1% | -23%
CN(c1ccccc1)S(=O)(=O)c1cccc(NC(=O)CN2C(=O)NC3(CCCCC3)C2=O)c1 | -4% | -3% | -17%
CCN(C(=O)COC(=O)c1ccc(O)cc1O)c1c(N)n(Cc2ccccc2)c(=O)[nH]c1=O | 3% | 0% | -8%

14 entries from above, reformatted:
Screens in order – RE007 growth inh	SARS PLpro yeast	2A StopGo
> COC(=O)[C@]1(C)N[C@H](c2ccc(-c3ccc(Cl)c(Cl)c3)cc2)[C@@H]2C(=O)N(C)C(=O)[C@@H]21
→ -7%	5%	u
> NCc1ccccc1CS(=O)(=O)N1CCOCC1
→ -14%	13%	-6%
> O=C(CNC(=O)C12CC3CC(CC(C3)C1)C2)OCc1ccc(F)cc1Cl
→ 15%	-8%	3%
> Cc1noc(C)c1S(=O)(=O)N(C)C[C@H]1Oc2c(NC(=O)Nc3ccc4c(c3)OCO4)cccc2C(=O)N([C@H](C)CO)C[C@@H]1C
→ 6%	18%	14%
> Cc1nc2ccc(NC(=O)c3ccc(C)c(S(=O)(=O)N4CCOCC4)c3)cc2s1
→ 16%	7%	u
> CCOC(=O)[C@@H]1[C@H]2COc3ccccc3[C@@H]2N2C(=O)N(c3ccc(C)cc3)C(=O)[C@@]12C
→ 2%	9%	36%[activator]
> COC(=O)C1=C(C)N(Cc2ccccc2)C(=NCCc2c[nH]c3ccccc23)N[C@H]1c1cccc(F)c1
→ -2%	-7%	u
> COc1cc(OC)cc(-c2cc3ccccc3c(=O)o2)c1
→ -14%	2%	47%[activator]
> O=C(CCNC(=O)c1ccc([N+](=O)[O-])cc1)Nc1cccc(S(=O)(=O)N2CCCCCC2)c1
→ 4%	11%	u
> Cc1ccc(OCC(=O)c2c[nH]c3ccccc23)c([N+](=O)[O-])n1
→ -5%	1%	77%[activator]
> COC(=O)C1=CO[C@@H](O[C@@H]2O[C@H](CO)[C@@H](O)[C@H](O)[C@H]2O)C2C(CO)=CCC12 (stereo not given in full)
→ -11%	4%	-17%
> COC(=O)c1cc(C(=O)OCC(=O)c2ccc[nH]2)cc([N+](=O)[O-])c1
→ -20%	-1%	-23%
> CN(c1ccccc1)S(=O)(=O)c1cccc(NC(=O)CN2C(=O)NC3(CCCCC3)C2=O)c1
→ -4%	-3%	-17%
> CCN(C(=O)COC(=O)c1ccc(O)cc1O)c1c(N)n(Cc2ccccc2)c(=O)[nH]c1=O
→ 3%	0%	-8%
